Resorufin autofl: resorufin region autofluorescence. Compound fluorescence, resorufin region 547/598 nm, buffer; hits give high values. max dye-equivalent concentration, M. 0.04% of 59,000 active. AID 588; active = above 10 nM dye equivalent; inconclusive = 1 to 10 nM; inactive = 1 nM or less; a few of its hits are not listed in these tables; also: highest value over a series up to 38 µM
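Dye-equivalent concentration values derive from comparing each well's 547/598 nm fluorescence against resorufin standards included on every plate. Incubation was 15 min at room temperature in 100 mM Tris, pH 8.0.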
A647 autofl: compound fluoresces in the A647 spectral region | max dye-equivalent concentration, M | 59,000 tested, under 10 active | Compound fluorescence, A647 channel (570/671 nm), Tris buffer; active means above 1 µM dye equivalent; inconclusive means 0.1 to 1 µM; inactive means 0.1 µM or less;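 also: values scaled relative to a standard on each plate; highest value over a series up to 38 µM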
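Compound fluorescence was measured in 100 mM Tris buffer, pH 8.0, after 15 min at room temperature, using 570 nm excitation and 671 nm emission filters. Signal was normalized to a per-plate Alexa 647 standard curve and expressed as dye-equivalent concentration at each compound concentration.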
TSHR agonist: agonists of human thyroid stimulating hormone receptor. P16473. 0.48% of 73,000 active. HEK293-CNG-TSHR cells (CNG channel as cAMP sensor), membrane potential dye, cAMP. AID 926. Potency, µM (highest dose often 57.1 µM), for the others: top-dose activation, usual class: activators; active = well fitted activation curve of enough size with the parental cells flat; inconclusive = any curve in the parental cells; inactive = parental cells flat and receptor cells flat or falling; also: potency is read from the fitted curve at half-maximal effect; % of control where 0% means no effect; weak receptor curves with flat parental cells got no call and are not listed
Target sequence (P16473 whole entry, looked up): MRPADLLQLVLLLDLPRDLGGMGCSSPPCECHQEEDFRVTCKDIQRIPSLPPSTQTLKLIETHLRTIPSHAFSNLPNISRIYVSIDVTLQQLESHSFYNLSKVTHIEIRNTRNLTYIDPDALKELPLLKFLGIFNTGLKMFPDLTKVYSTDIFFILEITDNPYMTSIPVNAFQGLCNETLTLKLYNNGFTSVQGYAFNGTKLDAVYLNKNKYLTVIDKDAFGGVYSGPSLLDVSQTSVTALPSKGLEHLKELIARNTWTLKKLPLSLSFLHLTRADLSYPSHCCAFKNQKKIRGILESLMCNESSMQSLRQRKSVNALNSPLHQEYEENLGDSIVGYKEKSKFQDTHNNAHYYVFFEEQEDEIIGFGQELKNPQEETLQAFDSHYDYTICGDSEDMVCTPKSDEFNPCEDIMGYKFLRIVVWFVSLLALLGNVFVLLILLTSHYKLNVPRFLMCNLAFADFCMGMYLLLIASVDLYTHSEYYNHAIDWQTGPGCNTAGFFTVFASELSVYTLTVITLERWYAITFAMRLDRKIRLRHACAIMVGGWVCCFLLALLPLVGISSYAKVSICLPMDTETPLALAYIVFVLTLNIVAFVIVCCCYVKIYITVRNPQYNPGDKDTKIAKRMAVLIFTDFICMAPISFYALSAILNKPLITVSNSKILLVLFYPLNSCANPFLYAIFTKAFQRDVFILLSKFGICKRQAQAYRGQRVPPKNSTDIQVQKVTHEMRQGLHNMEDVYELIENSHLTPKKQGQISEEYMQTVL
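cAMP rise detected as CNG-channel membrane depolarization by fluorescent dye (emission 590 nm), 30 min after compound, following 60 min dye loading containing 100 uM RO 20-1724 at room temperature. Cells: TSHR/CNG HEK 293, with parental CNG HEK 293 as control.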
A488 autofl: compound fluoresces in the A488 spectral region; AID 591; 0.1% of 59,000 active; compound autofluorescence, A488 spectral region, dye equivalency; hits give high values; max dye equivalency, M; active = above 10 nM dye equivalent; inconclusive = 1 to 10 nM; inactive = 1 nM or less; about half of its hits are not listed in these tables;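 also: highest value over a series up to 38 µM; compound alone in buffer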
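Read-out: relative fluorescence at 480/540 nm, expressed as Alexa 488 dye-equivalent concentration from a six-point A488 standard included per plate. Conditions: 100 mM Tris, pH 8.0; 15 min incubation, room temperature.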
AID923: qHTS Assay for Allosteric/Competitive Inhibitors of Caspase-1: Spectroscopic Profiling in AFC Spectral Region | compound fluorescence, AFC spectral region (405/520 nm); almost no hit is shown here | 1.1% of 75,000 active | Potency, µM (top dose mostly 57.5 µM), for inactives: at the highest dose fluorescence increase, usual class: activators; active = well fitted activation curve with a large enough effect; inconclusive = small, poorly fitted or top-dose-only effect;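 also: potency is read from the fitted curve at half-maximal effect; 0% is about no effect; scaled to a free AFC standard on each plate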
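Titrations up to 57 uM read every 20 sec for 3 min (405/520 nm) with 50 nM caspase 1 and 5 uM Ac-WEHD-AFC, pH 7.5 HEPES buffer. Fluorescence-vs-time intercept gave baseline, scaled against on-plate AFC standard.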
Starred values were filed as active, the others as inactive; i = inactive; ? = inconclusive; . = not tested or not shown; & = joins results of further samples; [ ] = another dose, or the depositor's remark. The list is partial. The share of hits here may be higher or lower than overall.

The line under a structure holds: Resorufin autofl | A647 autofl | TSHR agonist | A488 autofl | AID923
CN(C)CCCN1C(=O)c2oc3ccc(F)cc3c(=O)c2C1c1cccnc1 (centres undefined)
 : . | . | -0.6% | . | 1.8%
COc1ccc(-c2cc([C@H](O)[C@@H]3CCCCN3)c3ccccc3n2)cc1
 : i | 1e-09 | 5.8%[11.4 µM] | i | -1.6%[11.5 µM]
CC(C)NC(=O)CSc1nncn1-c1ccccc1
 : i | 2e-09 | 6.0% | i | -1.3%
CCc1nnc(NC(=O)CCC(=O)N2CCN(Cc3cc(Cl)ccc3OC)CC2)s1
 : i | 7.5e-09 | 13.6% | i | -0.1%
COC(=O)NC(/C(C(=O)OC)=C(\C)NCc1ccccc1)c1ccco1 (centres undefined)
 : . | . | -3.1%[11.4 µM] | . | -0.6%[11.5 µM]
Cc1cccc(NC(=O)Cn2c(=O)n(C)c3ccccc32)c1
 : i | 3.2e-09 | -8.7% | i | 3.9%
Cc1occc1C(=O)N1CCN(C(=O)C2CCCO2)CC1 (centres undefined)
 : . | . | -7.7% | . | -0.8%
O=S(=O)(NCCSc1nnc(-c2ccco2)n1-c1ccccc1)c1ccccc1
 : . | . | ? | . | -2.1%
CCOc1cc(C2C(C#N)=C(N)OC3CCCC(=O)C32)ccc1OCCN1CCOCC1 (centres undefined)
 : i | 1e-09 | 3.4% | i | -0.2%
COc1cc(CN2CCC(C(=O)N3CCN(c4ccccc4F)CC3)CC2)cc(OC)c1O
 : i | 6.61e-08 | -3.5% | i | -0.9%
O=c1[nH]c2ccc(Cl)cc2c(-c2ccccc2)c1N1CCN(c2ccccn2)CC1
 : i | 1.44e-08 | -3.4% | i | -3.1%
NC1=NC(=O)CC(C(=O)NCc2ccccc2)S1 (centres undefined)
 : i | 1e-09 | -9.1% | i | 0.5%
Cc1c(C(=O)OCC2CCCO2)[nH]c2c1C(=O)CC(c1ccco1)C2 (centres undefined)
 : i | 3.73e-08 | 10.2% | i | 1.0%
COc1ccc2c(c1)c(C(O)CN1CCC3(CC1)OCCO3)c(C)n2C (centres undefined)
 : i | 6.7e-09 | -7.3% | i | 0.0%
CCCN=Cc1sc2ccc(OCC)cc2c1O
 : . | . | 12.5% | . | 0.8%
O=c1c(-c2ccc(F)cc2)nc2cnc(Oc3cccc(Cl)c3)nc2n1C1CC1
 : i | 1e-09 | 2.1% | i | 13.7%
CCOC(=O)c1c(C)[nH]c(C(=O)CSc2nnnn2-c2ccccc2)c1C
 : i | 1.3e-09 | 6.3% | i | -0.5%
O=C(Nc1ccc2c(c1)OCO2)c1cccc(Cl)c1
 : i | 4.9e-09 | -14.4% | i | 0.1%
c1coc(CN(Cc2cccs2)Cc2nnnn2C2CCCCC2)c1
 : i | 1e-09 | ? | i | 0.8%
Clc1ccc(-n2nnnc2-c2ccccc2)cc1Cl
 : . | . | ? | . | 1.1%
COc1ccc(-c2nc(CN3CCC(C(=O)N4CCc5ccccc54)CC3)c(C)o2)cc1OC
 : . | . | -9.2% | . | -1.8%
CCCn1c(C)nc2c(N3CCOCC3)nc(C)nc21
 : . | . | 2.1% | . | 1.6%
Cc1ccc(NS(=O)(=O)c2cccc(C(=O)n3ncc(C#N)c3N)c2)c(C)c1
 : i | 2.77e-08 | 13.6% | i | -1.6%
COC(=O)C1=C(N)OC2=C(C(=O)CC(C)(C)C2)C1c1cccnc1 (centres undefined)
 : i | 1e-09 | 20.1% | i | -0.4%
CC(=O)Nc1ccc(OCC(O)CN2CCN(c3cccc(Cl)c3)CC2)cc1 (centres undefined)
 : i | 2.74e-08 | 5.7%[11.4 µM] | i | -0.8%
c1ccc(Cc2nnc3sc(-c4cccnc4)nn23)cc1
 : i | 4.1e-09 | ? | i | -2.3%
CCn1c(COc2ccccc2C)nnc1SCC(=O)O
 : i | 1e-09 | -2.8% | i | 0.6%
CC12CN3CC(C)(CN(C1)C3c1ccc3c(c1)OCO3)C2=O (centres undefined)
 : i | 1e-09 | 5.4% | i | -1.7%
COc1ccc2c(c1)N(C)C(=O)CC(c1ccccc1)=N2
 : i | 4.55e-08 | 9.0% | i | -0.6%
C[C@](Cc1ccc(O)c(O)c1)(NN)C(=O)O
 : i | 1e-09 | 4.1% | i | .

6 compounds out of the list, arranged by count of non-hydrogen atoms, falling.
The line under a structure holds: Resorufin autofl | A647 autofl | TSHR agonist | A488 autofl | AID923
COc1ccc(-c2nc(CN3CCC(C(=O)N4CCc5ccccc54)CC3)c(C)o2)cc1OC
 : . | . | -9.2% | . | -1.8%
COC(=O)NC(/C(C(=O)OC)=C(\C)NCc1ccccc1)c1ccco1 (centres undefined)
 : . | . | -3.1%[11.4 µM] | . | -0.6%[11.5 µM]
c1coc(CN(Cc2cccs2)Cc2nnnn2C2CCCCC2)c1
 : i | 1e-09 | ? | i | 0.8%
c1ccc(Cc2nnc3sc(-c4cccnc4)nn23)cc1
 : i | 4.1e-09 | ? | i | -2.3%
Clc1ccc(-n2nnnc2-c2ccccc2)cc1Cl
 : . | . | ? | . | 1.1%
NC1=NC(=O)CC(C(=O)NCc2ccccc2)S1 (centres undefined)
 : i | 1e-09 | -9.1% | i | 0.5%

Further structures follow:
The line under a structure holds: Resorufin autofl | A647 autofl | TSHR agonist | A488 autofl | AID923
CC(NC(=O)C1CCN(S(=O)(=O)N2CCCCCC2)CC1)c1ccccc1 (centres undefined)
 : i | 1e-09 | 7.3% | i | -1.1%
Nc1nc(SCc2nc3scc(-c4cccs4)c3c(=O)[nH]2)n[nH]1
 : i | 1.8e-08 | -8.7% | i | -1.3%
CCOc1ncccc1C(=O)OCC(=O)N1CCN(S(=O)(=O)c2ccc(Cl)cc2)CC1
 : i | 4.8e-09 | 0.3% | i | -0.6%
Cc1ccc(S(=O)(=O)NCc2nc3ccccc3c(=O)n2N)cc1
 : i | 4.43e-08 | 3.3% | i | 0.2%
CC1(C)Cc2c(sc3nc(SCC(=O)O)[nH]c(=O)c23)CO1
 : i | 6.7e-09 | 25.2% | i | 0.9%
Cn1c(=O)c2c(nc(NCCCO)n2Cc2cccc(Br)c2)n(C)c1=O
 : i | 1.13e-08 | ? | i | 0.9%
COc1cccc(Cn2c(=O)c(-c3cn(C)c4ccccc34)nc3cnc(N4CCNCC4)nc32)c1
 : i | 2.13e-08 | 1.1% | i | 21.0%
Cc1cc2oc(C(=O)NCc3ccc4c(c3)OCO4)c(C)c2cc1C
 : i | 2.85e-08 | ? | i | 0.2%
CS(=O)(=O)N1CCN(C(=O)CCC2CCCC2)CC1
 : . | . | -7.0% | . | 0.2%
CCOC(=O)c1cc(C)n(CCc2ccccc2)c1C
 : i | 2.49e-08 | ? | i | -0.3%
O=c1[nH]c(NCCCO)nc2c1C1(CCCC1)Cc1ccccc1-2
 : . | . | -9.0% | . | -3.3%
O=C(C1CCCCC1)N1CCN(S(=O)(=O)c2ccc(Cl)cc2)CC1
 : i | 3.06e-08 | 7.8% | i | -0.3%
CC(=O)c1c(COC(=O)c2ccncc2)nc2ccccc2[n+]1[O-]
 : i | 1e-09 | 14.0% | i | 1.9%
CC1(C)Cc2c(c(N3CCOCC3)nc3snc(N)c23)CO1
 : i | 1e-09 | . | i | .
O=C(Nc1cccnc1)c1ccc(Cl)c(S(=O)(=O)N2CCCCCC2)c1
 : i | 1e-09 | 5.8% | i | -1.7%
COc1ccc(S(=O)(=O)N2CCCN(S(=O)(=O)c3ccc(OC)cc3C)CC2)c(C)c1
 : . | . | 10.8%[11.4 µM] | . | -2.1%
CC(C)CCOP(=O)(c1ccc(N(C)C)cc1)C(O)c1ccccn1 (centres undefined)
 : i | 1.2e-09 | 5.0% | i | 0.4%
O=C(CS(=O)(=O)Cc1ccccc1)Nc1nnc(C2CCCCC2)s1
 : i | 1.73e-08 | 3.3%[11.4 µM] | i | -0.2%
O=C(O)[C@@H](Br)[C@@H](Br)c1ccccc1[N+](=O)[O-]
 : i | 2.88e-08 | 2.1%[11.4 µM] | i | -1.2%[11.5 µM]
Cc1cc(=O)[nH]c2c1c(C)nn2C1CCCC1
 : i | 3.04e-08 | -0.2% | i | -1.4%
CN1CCc2nc(NC(=O)c3cccc(S(=O)(=O)N4CCc5ccccc54)c3)sc2C1
 : i | 2.51e-08 | 10.8% | i | 14.7%
O=S(=O)(c1ccc(S(=O)(=O)N(Cc2ccco2)Cc2ccccc2Cl)cc1)N1CCCC1
 : i | 1e-09 | . | i | 1.8%
Cn1cnnc1SCc1ccc(F)c2ccccc12
 : . | . | 18.2%[11.4 µM] | . | -1.5%
COC(=O)[C@H]1C[C@@H]1[C@H](NC(=O)c1cc(C)on1)c1ccccc1
 : . | . | 3.2% | . | -0.2%
O=C(Nc1cccc(F)c1)c1ccc(S(=O)(=O)NCC2CCCO2)cc1 (centres undefined)
 : i | 1.54e-08 | -12.4% | i | 0.3%
COc1ccccc1N1CC(O)=C(c2nc3ccccc3c(=O)[nH]2)C1=N
 : i | 4.3e-09 | 2.2% | i | 0.9%
COc1ccc(CC(=O)NCc2nnc(SCC(=O)Nc3nccs3)n2-c2ccccc2)cc1
 : . | . | 5.0% | . | 0.3%
COC(=O)[C@@H](NC(=O)Nc1ccc(OC(F)(F)F)cc1)C(C)C
 : i | 1.37e-08 | 6.7%[11.4 µM] | i | 0.5%
Cc1nc(NC2CCCCC2)c2nc(-c3ccccc3)n(CCCN(C)C)c2n1
 : . | . | ? | . | 2.2%
O=C1CCCC2=C1C(c1ccco1)Nc1ccc(C(=O)c3ccccc3)cc1N2 (centres undefined)
 : . | . | -14.7% | . | 7.0%

(list continues)
Structure | Resorufin autofl | A647 autofl | TSHR agonist | A488 autofl | AID923
Cc1noc(C)c1C(=O)N1CCC[C@@]2(CCN(C(=O)Nc3ccccc3)C2)C1 | i | 5.4e-09 | 1.7% | i | 2.5%
Cc1ccc2c(c1)C(CCN)C(=O)N2Cc1ccccc1 (centres undefined) | i | 9.31e-08 | . | i | .
CN(C)C(=O)c1ccc(-c2cncnc2N2CCNCC2)cc1 | i | 4.4e-09 | ? | i | 4.1%
CCOC(=O)c1[nH]c2ccc(OC)cc2c1NC(=O)C(C)N1CCSCC1 (centres undefined) | i | 1e-09 | -1.0% | i | 2.1%
Cc1cc(=O)oc2c(CN3CCC(C)CC3)c(O)c(Cl)cc12 | i | 1e-09 | . | i | .
CCOC(=O)CSc1nc(N)c(C#N)c(CC(C)C)c1C#N | i | 1e-09 | 3.0% | i | 2.9%
O=C(O)c1cccc(COc2ccc(CO)cc2Cl)c1 | i | 1e-09 | 5.2% | i | 0.8%
COc1ccc(CNc2oc(COc3ccccc3Cl)nc2C#N)cc1 | i | 2e-09 | . | i | .
Cc1ccccc1C(NC(N)=O)c1ccccc1 (centres undefined) | i | 3.6e-09 | 4.5% | i | 0.6%
CCCOc1cc(N)ccc1C(=O)OCCN(CC)CC | i | 2.48e-08 | -2.7%[25.6 µM] | i | 0.3%[25.7 µM]
O=C(OCCN1CCOCC1)C1(c2ccccc2)CCCCC1 | i | 1.21e-08 | 20.7%&19.7% | i | -2.5%&0.5%
Cc1ccc(NC(=O)CSc2nnc(-c3ccccc3C)o2)cc1C | i | 5.91e-08 | ? | i | -0.1%
CCCn1c(SCC(=O)N2CCCc3ccccc32)nnc1-c1ccccn1 | i | 6.9e-09 | 4.0% | i | -0.3%
Cc1nc2cnc(OCc3ccccc3)nc2n(CCc2ccccc2)c1=O | i | 1e-09 | ? | i | -1.0%
O=C1NC(c2ccccc2Cl)Nc2ccccc21 (centres undefined) | i | 1e-09 | ? | i | 6.1%
CCOc1ccc(C2c3c(oc4ccccc4c3=O)C(=O)N2c2ccccn2)cc1OC (centres undefined) | . | . | ? | . | 3.0%
COC(=O)Cc1c(C)c2c(OCc3nn[nH]n3)cc(C)cc2oc1=O | i | 1e-09 | 9.9% | i | 0.6%
